# Screening data from PubChem BioAssay.
# BJeLR lethal: BJeLR cell viability loss; inhibition, % (no concentration beside the values); BJeLR (HRASV12) viability, CellTiter-Glo ATP luminescence, 48 h; reference of the scale not given here; AID 1554; 300,000 compounds, 0.17% hits;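 active = replicate mean above 50%; inconclusive = above 50% but judged a plate artefact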;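 also: 50 nL library stock added to about 25 µL; numbers are from one replicate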
# PrP UTR inh: inhibition of PrP 5' UTR reporter expression; cell-based PrP 5' UTR mRNA reporter, plate reader; inhibition, % (concentration not given with the values); 340,000 compounds, 0.35% hits; AID 488862;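 active = every replicate at 50% or more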;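 also: 0 = median of the neutral control wells; tested in H4 reporter cells; numbers are from one replicate; inactives centre near -14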
# Autofluor counter: flagged as autofluorescent in microsphere protease counterscreen; compound autofluorescence counterscreen, microsphere flow cytometry; active compounds read high; fluorescence intensity (test concentration not listed); 360,000 compounds, 3.1% hits;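 active = at least 3 SD above the mean of all compounds, about 16000 in these data; inconclusive = too few beads counted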;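 also: 100 nL of 1 mM stock went into each well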
# Mtb hypoxia inh: inhibitors of hypoxia-regulated fluorescent reporter in Mycobacterium tuberculosis. M. tuberculosis hypoxia-regulated fluorescent reporter, fluorescence. fluorescence inhibition, % (concentration not given with the values). 300,000 compounds, 0.1% hits. AID 1159583;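 active = 35 to 45% if threefold the growth effect, above 45% if 1.5-fold the growth effect; inactive = the rest, general growth blockers included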;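 also: wells of about 50 µL received 100 nL stock; 0% = vehicle wells and 100% = reference inhibitor wells; whole bacteria with a GFP reporter of the hypoxia response; strong numbers were not always called active; many hits fall short of the cut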
# RN4220 kill: S. aureus RN4220 growth inhibition; AID 1259311; 330,000 compounds, 0.33% hits; OD600, 16 h; inhibition, % (concentration not given with the values);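 active = z-score of -3 or lower and OD600 up to 0.18 on both plates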;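 also: plate controls were untreated cells for no effect and reference antibiotic for full effect; stock transfer was 100 nL into about 80 µL; one replicate is shown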
# Sa ugtP lethal: compounds lethal to S. aureus RN4220 ugtP deletion mutant; OD600 growth, 16 h; some inactives read as strong as hits; growth inhibition, % (test concentration not listed); 330,000 compounds, 0.54% hits; AID 1259309;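 active = z-score under -3 and OD600 up to 0.15 on both plates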;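 also: plate controls were untreated wells for no effect and antibiotic for full effect; wells of about 80 µL received 100 nL stock; the first replicate is given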
# Mtb hypoxia inh growth: also measured in Mtb hypoxia inh; calls as there; growth inhibition, %; measured here: M. tuberculosis growth (absorbance);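 0% = vehicle and 100% = reference antibiotic; read after six days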
# The depositor's hits bear a star; ? = inconclusive; · = not tested or not shown.
# Preview (3 entries):
SMILES,BJeLR lethal,PrP UTR inh,Autofluor counter,Mtb hypoxia inh,Mtb hypoxia inh growth,RN4220 kill,Sa ugtP lethal
O=[N+]([O-])c1ccc(CSC2=NCCS2)cc1,-20,-25,4384,·,·,·,·
COc1ccc(CN(C#N)c2nc(C)cc(C)n2)cc1,2,-21,4153,3,1,1.9,7
COC(=O)C(C(=O)N1CCN(C)CC1)C1CCCCCC1 (stereo unspecified),·,20,2590,·,·,2.2,-1

# The listing, from the start:
SMILES,BJeLR lethal,PrP UTR inh,Autofluor counter,Mtb hypoxia inh,Mtb hypoxia inh growth,RN4220 kill,Sa ugtP lethal
O=[N+]([O-])c1ccc(CSC2=NCCS2)cc1,-20,-25,4384,·,·,·,·
COc1ccc(CN(C#N)c2nc(C)cc(C)n2)cc1,2,-21,4153,3,1,1.9,7
COC(=O)C(C(=O)N1CCN(C)CC1)C1CCCCCC1 (stereo unspecified),·,20,2590,·,·,2.2,-1
CCOc1nc(NC(=O)NS(=O)(=O)Oc2ccccc2Cl)nc(-c2ccccc2)n1,2,-2,10773,6,10,3.4,-1
COC(=O)/C=C1/SC(=NC(=O)c2ccc(Cl)cc2)NC1=O,0,-2,5220,9,-6,9.3,13
CCOC=NNc1nc(C(F)(F)F)nc2c1cnn2Cc1ccccc1,·,·,·,-2,0,-5.2,-3
Nc1nc2c(nc(N3CCCCC3)n2[C@@H]2O[C@H](CO)[C@@H](O)[C@H]2O)c(=O)[nH]1,6,-11,4506,2,8,3.7,17
CCc1ccc(CNC(=O)c2ccc(OC3CCN(C(=O)COC)CC3)cc2)nc1,-7,-15,4294,16,-3,2.1,20
COc1ccc(S(=O)(=O)n2cccc2)c(OC)c1,-8,-11,3493,4,-4,3.4,6
O=[N+]([O-])c1ccccc1Oc1ccccc1Cl,3,-34,2086,0,-2,2.7,2
COc1ccc(NC(=O)Cn2cccc2)cc1Cl,-1,16,22292*,2,6,1.2,1
CCCc1cc(C(=O)NCCc2ccccc2)no1,0,-49,6364,·,·,-9.2,-5
C/C(=N\O)c1ccc(Cl)cc1Cl,0,-12,4459,·,·,·,·
Oc1ccc(/C=N/NC(=S)NCCN2CCOCC2)c(O)c1,7,32,4506,·,·,·,·
CCNC(=O)/C(=C/c1ccc2c(c1)OCO2)NC(=O)c1ccc(Br)cc1,-4,-9,2944,·,·,18,-5
COc1cc(OC)cc(C(=O)Oc2ccc(C=NNc3nc4ccccc4s3)cc2OC)c1,·,·,·,18,-2,12,-9
CC(C)Oc1cccc(-c2nnc(SCC(=O)Nc3ccc4c(c3)OCCO4)n2N)c1,7,-17,9898,0,4,3.3,2
O=C(Nc1ccc2c(c1)OCO2)N1CCC(CO)(CC2CCCCO2)CC1 (stereo unspecified),3,-19,5037,-3,-19,1.5,0
Cc1ccc(C)c(N2CCN(C(=O)C3CCN(c4nnc(N5CCCC5=O)s4)CC3)CC2)c1,16,-17,3624,24,-11,-12,-6
CCn1ccnc1CN1CCc2c([nH]c3ccccc23)C1C1CCCCC1 (stereo unspecified),-12,-9,?,5,0,5.9,-25
Cn1c2c(c(=O)[nH]c1=O)C(c1cccc(O)c1)C1=C(N2)c2ccccc2C1=O (stereo unspecified),·,-7,4144,-4,3,18,14
COc1ccc2c(COC(=O)CNS(=O)(=O)c3ccc(C)c(C)c3)cc(=O)oc2c1,·,-14,4021,-14,-3,-1.2,-1
Nc1ccc(Oc2ccc3nc(-c4ccccc4)c(-c4ccccc4)nc3c2)cc1,4,-24,2780,·,·,-12,46
Cc1nn(CC2CC2)c(=O)n1-c1ccc(Cl)cc1,3,-9,3265,15,2,6.7,11
OCC1(Cc2cccc(Cl)c2)CCCN(Cc2ccc(F)c(F)c2)C1 (stereo unspecified),-7,-9,4436,14,15,1.1,7
Cc1cc(/C([O-])=C(/C(=S)Nc2ccccc2)[n+]2ccccc2)c(C)n1-c1ccccc1,-9,13,2808,6,14,4.9,5
COc1ccc(N2CCN(C(=O)c3ccc(C)cc3Cl)CC2)cc1,0,-11,9431,7,6,-0.4,14
CCCCNC(=O)COC(=O)CCC(=O)c1ccc(F)cc1,-2,-16,2584,·,·,1.9,2
Cc1cccc(-n2c(O)c(C=NCCCN3CCOCC3)c(=O)[nH]c2=O)c1C,8,5,2487,-14,0,1.6,-1
O=C(Cc1ccc(Cl)cc1)Nc1cccc(S(=O)(=O)Nc2ccccc2F)c1,-9,-11,2448,-2,1,-11,3
CCOC(=O)CS(=O)(=O)c1nc(-c2ccc(F)cc2)cc(C(F)(F)F)n1,29,-6,2714,·,·,0.4,24
Cc1ccccc1OCCSc1nnc(-c2cccnc2)n1N,-1,-31,4823,9,11,0.0,0
CCOC(=O)c1c(C)[nH]c(C(=O)COC(=O)C23CC4CC(CC(Cl)(C4)C2)C3)c1C,0,6,4546,1,5,0.6,15
CCC(C)c1ccc(OCC(=O)Nc2ccc3[nH]c(=O)[nH]c3c2)cc1 (stereo unspecified),8,-29,9104,4,5,3.5,1
NC(=O)NCc1cccnc1,2,-7,4510,-11,-5,3.0,3
CN(C)C1C(=O)C(C(N)=O)=C(O)[C@@]2(O)C(=O)C3=C(O)c4c(O)ccc(Cl)c4C(O)C3CC12 (stereo partly specified),·,·,·,·,·,100*,99*
COc1cc(/C=N/NC(=S)Nc2cccnc2)cc(OC)c1O,-29,-24,3137,·,·,·,·
O=C(NNS(=O)(=O)c1ccccc1)c1cccs1,-1,-19,2536,7,4,5.0,-4
Cn1c(-c2cccc(Br)c2)cnc1NCc1cccnc1,0,-7,23394*,1,3,2.4,2
CN=C1S/C(=C\c2ccc(OCC(=O)OC)c(OC)c2)C(=O)N1C,17,-9,4217,5,16,6.4,3
COC(=O)c1c[nH]c(=S)n1Cc1ccccc1,·,-10,3809,17,11,2.6,0
Cc1c(C(=O)N2CCN(S(=O)(=O)c3ccc(F)cc3)CC2)oc2ccccc12,-9,-6,5371,39*,20*,30,10
O=C(COc1cccc2c1CCNC2=O)Nc1cccc(C(F)(F)F)c1,0,-2,3830,2,-2,5.8,-4
O=C(Nc1cccc(F)c1)c1ccc(S(=O)(=O)N2CCCC2)cc1,5,-9,5758,5,-1,1.9,5
CC(=O)c1ccc(NC(=O)CO/N=C(\C)c2cccs2)cc1,15,2,2447,·,·,·,·
CCCN(CC(=O)Nc1ccc(Cl)cc1Cl)C(=O)c1ccc(=O)[nH]c1,12,-17,?,-13,-7,-0.3,0
Nc1nc(-c2ccccc2)c(-c2ccccc2)s1,-1,-20,4186,·,·,-0.8,35
CCS(=O)(=O)N1CCC2(CC1)OCCN2S(=O)(=O)c1ccc(C)cc1,-5,3,?,0,-5,0.8,5
Cc1ccc(S(=O)(=O)NC(C)(C)CSc2nnc(N)s2)cc1,2,-18,2759,·,·,-3.9,-6
CC(CN1CCCCC1)NC(=O)c1cccs1 (stereo unspecified),0,-49,4179,8,1,2.0,10

# Next part.
SMILES,BJeLR lethal,PrP UTR inh,Autofluor counter,Mtb hypoxia inh,Mtb hypoxia inh growth,RN4220 kill,Sa ugtP lethal
CN(c1ccc(C(=O)NCC2CCCO2)cc1)S(C)(=O)=O (stereo unspecified),-4,-13,5544,-6,2,-3.1,-4
Cc1cc(C(=O)Nc2ncn[nH]2)ccc1[N+](=O)[O-],-2,5,4142,2,-5,6.7,1
Cc1cc(N2CCOCC2)nc2ccc(NC(=O)CCC(=O)N3CCC(C)CC3)cc12,-2,-37,19171*,1,-3,4.5,0
Cn1c(C(=O)OC(C(=O)NC2CCCCC2)c2ccccn2)cc2sccc21 (stereo unspecified),-15,-14,3891,21,5,2.1,2
Cc1cc(NC(=O)Cc2ccccc2)no1,7,-19,2043,3,-2,4.6,5
O=C(c1ccc(F)cc1)N(NC(=O)C(O)(c1ccccc1)c1ccccc1)c1ccccc1,-3,2,2379,1,11,4.5,-3
Cc1nc(CS(=O)(=O)c2ccccn2)sc1C(=O)NNC(=O)c1ccc(Cl)cc1,3,-15,6221,-9,-6,2.7,8
COc1cc(/C=N/N(C)C2=NS(=O)(=O)c3ccccc32)cc(OC)c1OC,0,-7,3554,·,·,·,·
CC(Cc1ccccc1)=NNC(=O)CNC(=O)Cc1ccc(Cl)cc1,·,·,·,-4,-3,0.4,5
CCOC(=O)c1c(N)sn(-c2ccccc2C)c1=S,16,-16,3186,-2,4,3.3,-1
O=C(CN1C(=O)CSC1=O)Nc1ccc(N2CCOCC2)cc1,3,6,4425,·,·,-9.7,1
O=C(Cn1cc(C(F)(F)F)ccc1=O)NC1CCCC1,·,-1,3397,0,5,4.5,7
O=S(=O)(c1cccs1)N1CCN(c2ccccn2)CC1,1,9,22816*,6,9,2.1,0
Cc1ccc(S(=O)(=O)N/N=C/c2ccc(O)c(O)c2)cc1[N+](=O)[O-],-29,-14,4337,·,·,·,·
Cc1occc1C(=O)NN=Cc1ccc(OCc2ccccc2)cc1,·,·,·,2,7,4.2,-2
CN(C)c1cc(NN=Cc2ccc(Cl)cc2)nc(N(C)C)n1,·,·,·,-17,-15,4.5,42
CCOc1ccccc1-n1nnnc1SCC(=O)NC(=O)Cc1ccccc1,·,-12,?,5,8,3.5,4
CC(C)OC(=O)CSc1nc(N)c(C#N)c(-c2ccco2)c1C#N,-2,-21,2476,·,·,8.7,7
CN(C)CCCN=Cc1c(-c2ccccc2)[nH]n(-c2nc3ccccc3s2)c1=O,4,-18,5170,-1,4,4.1,2
Oc1c(Cl)cc(Cl)cc1C=Nc1ncn[nH]1,·,·,·,14,-1,6.7,-3

# Some entries already given with just Sa ugtP lethal, Autofluor counter and RN4220 kill.
SMILES | Sa ugtP lethal | Autofluor counter | RN4220 kill
CN=C1S/C(=C\c2ccc(OCC(=O)OC)c(OC)c2)C(=O)N1C | 3 | 4217 | 6.4
COC(=O)c1c[nH]c(=S)n1Cc1ccccc1 | 0 | 3809 | 2.6

# Next part.
SMILES,BJeLR lethal,PrP UTR inh,Autofluor counter,Mtb hypoxia inh,Mtb hypoxia inh growth,RN4220 kill,Sa ugtP lethal
O=C(CN(C1CCCCC1)S(=O)(=O)c1ccc(Cl)cc1)NCc1cccnc1,0,-21,6130,3,9,4.2,0
CCCC(C(=O)NC1CCCC1)N(Cc1ccccc1Cl)C(=O)c1snc(C(N)=O)c1N (stereo unspecified),11,-11,3828,4,0,-1.9,9
Cc1c(CCC(=O)O)c(=O)oc2c(C)c(OCc3cc4c(cc3Cl)OCO4)ccc12,16,-10,4080,17,6,31,49
CCOc1cc(-c2c(C)c(C)nc(N)c2C#N)ccc1O,4,-27,4808,·,·,0.6,-2
CCn1cc(C(=O)NC(C)CCc2ccccc2)c(=O)c2cc(S(=O)(=O)N(C)C)ccc21 (stereo unspecified),2,-15,3619,-6,7,-0.4,7
Cc1ccc(N2CC(C(=O)Nc3c4c(nn3C(C)(C)C)CS(=O)(=O)C4)CC2=O)cc1C (stereo unspecified),-3,-10,4163,0,-1,4.3,11
CC(=O)N1c2ccc(S(=O)(=O)NCC3CCC(C(=O)NCc4ccc(C)o4)CC3)cc2CC1C (stereo unspecified),11,-7,5742,16,4,2.6,7
O=C(CN1CCN(Cc2ccc(Cl)cc2)C1=O)N1CCC2(CC1)OCCO2,-13,-7,5324,·,·,-0.3,2
COc1ccc2[nH]c3c(=O)n(CCN4CCOCC4)cnc3c2c1,-2,-6,3386,11,1,2.3,1
O=c1oc2ccc(C#CC3(O)CCCCC3)cc2cc1-n1cc(-c2ccccn2)nn1,·,-4,3129,10,7,6.7,1
COc1cc(C(=O)Nc2sc(C(=O)N3CCOCC3)c(C)c2C#N)cc(OC)c1OC,-11,-17,2282,-6,2,-15,-3
O=C(Cc1ccccc1)N1CCN(C2CCCC2)CC1,-11,0,3095,17,12,1.8,5
CSCCC1NC(=O)N(CC(=O)N2N=C(c3ccc(Cl)cc3)CC2c2ccco2)C1=O (stereo unspecified),29,-7,4314,3,3,1.9,-2
CC(C)N1C(=O)CCC1C(=O)N1CCC2(CC1)OCCO2 (stereo unspecified),4,-22,11034,2,3,6.7,4
O=C1SC(c2ccccc2)=N/C1=C/c1ccco1,4,-10,8357,13,6,6.0,4
O=C(Nc1ccccc1C(=O)NCCCN1CCOCC1)c1ccc(F)cc1F,-4,-18,5597,-1,5,2.1,1
O=C(c1ccc(F)cc1F)N(Cc1ccccn1)Cc1ccco1,-2,·,12803,5,11,0.2,-4
COc1cc(-c2nnc3n2CCCCC3)cc(OC)c1OC,-11,-21,3418,0,4,3.9,14
